Source: PubChem BioAssay
Calb biofilm kill: mixture kills Candida albicans biofilm cells; C. albicans biofilm persisters + clotrimazole, fluorescence viability; primary screen in compound mixtures of four per well; inhibition, % at 7.6 µM; hit rate 0.02% among 120,000; AID 1242;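 active = inhibition above 30.3% in the primary screen of four-compound pools, then above 30% when the compound was retested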;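 also: compounds exposed to preformed 24 h biofilms for 48 h; the number belongs to the whole pool; some results filed as inactive read as strong as hits; inactives centre near 12; 0% = biofilm with clotrimazole alone and 100% = kill control; retested singly at about 60 µM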
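Test system: C. albicans biofilms. Buffer or medium: RPMI/MOPS medium, pH 7.0. Timing: 48 h compound exposure at 37 °C. Technique: Alamar Blue fluorescence. Evaluation: percent inhibition of biofilm viability.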
* hit, by the source's call; & = joins results of further samples.

no.	SMILES	Calb biofilm kill
1	Cc1cccc(NC(=S)NC2CC3CCCC(C2)N3CC(C)C)c1 (centres undefined)	-5
2	O=c1[nH]cc(NCCNc2ncc(C(F)(F)F)cc2Cl)c(=O)[nH]1	19
3	CC(C)c1cc(CNC(=O)CCc2nnc(CCCc3ccccc3)o2)on1	23
4	Cc1cccc(C(=O)N[C@H](C(=O)Nc2ccc(S(=O)(=O)NC3=NCCCCC3)cc2)C(C)C)c1	1
5	CC1CCN(CCCNC(=O)c2ccc(Cn3c(=S)[nH]c4ccc(Br)cc4c3=O)cc2)CC1	11
6	CC(C)(C)c1nnc2sc(SCC(=O)N3CCc4ccccc43)nn2c1=O	16
7	CCOC(=O)c1c(-c2ccc(F)cc2)csc1NC(=O)c1c(-c2ccccc2)noc1C	8
8	CC1=C(CCN2CCN(C3CCCC3)C(CCO)C2)C(C)(C)CCC1 (centres undefined)	14
9	Cc1ccccc1CSCC(=O)NCCSc1ccccn1	2
10	COc1cccc(C(=O)C2CCCN(Cc3cccn3-c3ccccn3)C2)c1 (centres undefined)	0
11	O=C(NCc1csc(-c2ccccc2)n1)c1cc(F)cc2c1OCOC2	24
12	Cc1cc2c(ncn2C)c(NS(=O)(=O)c2ccc(F)cc2)c1C	18
13	O=C(c1ccccc1)c1ccc(OCC(=O)N2CCOCC2)cc1	15
14	CCc1ccc(C2NC(c3ccc(CC)cc3)C([N+](=O)[O-])C(C)(C)C2[N+](=O)[O-])cc1 (centres undefined)	18
15	C=CCNC(=S)Nc1sc2c(c1C(N)=O)CCCC2	30
16	Cc1ccc(S(=O)(=O)N2CCC(C(=O)N[C@@H](C)C(=O)NCc3ccco3)CC2)cc1	19
17	C/C(=N/Nc1ccc(C)cc1)C1(C)N(O)C(C)(C)C(c2ccco2)=[N+]1[O-] (centres undefined)	10
18	c1ccc(CSc2ccc(-c3cccs3)nn2)nc1	11
19	O=C(c1ccc(N2C(=O)C3CC=C(Cl)CC3C2=O)cc1)N1CCOCC1 (centres undefined)	8
20	CN1CCN(C(=O)C2=C[C@@H](c3csc4ccccc34)C[C@@H](OCc3ccc(CO)cc3)O2)CC1	16
21	COc1ccc(/C=N/n2cnnc2)cc1Oc1nc(Cl)ncc1F	16
22	Cc1cccc(N2CCN(c3nc4ccc(Cl)cc4n4cnnc34)CC2)c1C	15
23	COc1cc(C(CCN2CCCC2)c2c(OC)cc(OC)c3ccc(=O)oc23)cc(OC)c1OC (centres undefined)	16
24	O=C1CC(=O)N(c2cccc(F)c2)N1	4
25	CN(C)S(=O)(=O)c1cccc(NC(=O)c2ccc(N3CCOCC3)c([N+](=O)[O-])c2)c1	5
26	COCCN(Cc1cc2cc3c(cc2nc1Cl)OCO3)C(=O)Nc1ccc(OC)cc1	9
27	COc1ccc(C(=O)Sc2nncc3ccccc23)cc1	0
28	CCOC(=O)Cc1csc(SCc2cc(=O)oc3cc(O)ccc23)n1	10
29	COc1ccc(Br)cc1C(=O)N/N=C/c1ccc2c(c1)n(C)c(=O)n2C	18
30	COCCN1Cc2cccc(C(=O)Nc3ccc(-c4nc5ccccc5[nH]4)cc3)c2C1=O	9
31	Cc1nn(C)c2nc(-c3cccs3)cc(C(F)(F)F)c12	3
32	Nc1nnc(-c2cccc(Cl)c2Cl)c(N)n1	18
33	Cc1ccc(OCC(=O)N/N=C\c2ccc(C)o2)c(C)c1	12
34	O=C(CSc1ncccc1-c1nc2ccccc2[nH]1)Nc1ccc2c(c1)OCCO2	11
35	CCCC[N+](CC#Cc1ccccc1)(CCCC)CCCS(=O)(=O)[O-]	16
36	COc1ccc(NC(=O)CCN2C(=O)[C@@H]3[C@H](C2=O)[C@H]2C=C[C@@H]3C2)cc1	13
37	CC(C)(C)n1nc2c(c1NC(=O)Cc1ccccc1)CS(=O)(=O)C2	5
38	COc1cc(C(=O)NNC(=S)NC(=O)c2ccccc2C)cc(OC)c1OC	13
39	Cc1ccc(-c2csc(NC(=S)NC(=O)c3cc4ccccc4o3)n2)cc1	17
40	Cc1cccc(N2CCN(C(=O)c3ccoc3C)CC2)c1C	16
41	Fc1ccc(-n2nnc(-c3ccnc4ccccc34)n2)cc1	14
42	CN1CCN(/N=C/c2ccc(Br)cc2)CC1	-6
43	CC(C)OP(=O)(c1ccc(N(C)C)cc1)C(Nc1ccccc1)c1ccccc1 (centres undefined)	8
44	CCS(=O)(=O)n1nc(-c2ccc(OC)cc2)nc1N	14
45	CC(C)N(C(=O)CSc1nnc(-c2ccc3c(c2)OCO3)n1C)C(C)C	17
46	CCOc1cc(/C=C2\SC(=Nc3ccc(F)cc3)N(c3ccc(F)cc3)C2=O)ccc1OCC(=O)O	4
47	COCC(=O)n1nc(-c2ccccc2)nc1NCc1cccs1	20
48	Cc1ccc(-c2noc(-c3ccoc3C)n2)cc1	0
49	O=C(Nc1ccccc1F)c1ccn[nH]1	15
50	O=[N+]([O-])c1ccc(-c2cnc(NO)nc2)cc1	11

New compounds follow.
no.	SMILES	Calb biofilm kill
51	O=C(Nc1ccc(F)cc1F)N1CCCN(c2ccc(C(F)(F)F)cn2)CC1	18
52	Cc1ccc(S(=O)(=O)CCN2CCC(n3cccc3)CC2)cc1	4
53	Cc1ccc(NC(=S)NC2CCN(Cc3ccccc3)CC2)c(C)c1	7
54	Cc1cc(Nc2cccc(Cl)c2)nc(N2CCOCC2)n1	19
55	Cc1ccc(/C=C/C(=O)Nc2ccc(O)c3c(=O)cc(-c4ccccc4Cl)oc23)cc1	3
56	COc1ccc(-c2noc(-c3ccoc3C)n2)cc1OC	10
57	Cc1cc(C)n(-c2nc3ccccc3n3c(C)nnc23)n1	1
58	COc1ccc(N2C(=O)C(OC(C)=O)C2c2ccc(C)cc2)cc1 (centres undefined)	9
59	Cc1cc(Nc2ccccc2)n2nc(C)c(-c3ccccc3)c2n1	13
60	O=C(/C=C/C=C/c1ccccc1)c1ccco1	23
61	OCCC1CN(Cc2ccc3nsnc3c2)CCN1C1CCCC1 (centres undefined)	14
62	CSCc1nc2sc(C(=O)Nc3nc(C)cs3)c(C)c2c(=O)[nH]1	0
63	N/C(=N\O)c1cccc(CS(=O)(=O)c2ccccn2)c1	10
64	COc1ccc(C(=O)Nc2ccc([N+](=O)[O-])cn2)c(OC)c1	9
65	Oc1ccccc1/C=N/NC(=S)NC1CC2C=CC1C2 (centres undefined)	18
66	OC(CNCc1ccc2c(c1)OCO2)COc1ccccc1 (centres undefined)	27
67	Cc1ccc(SCc2c(C#N)c3ccccc3n2C)cc1	12
68	Cc1cc(=O)oc2cc(OCC(=O)OCC(=O)Nc3ccccc3F)ccc12	13
69	O=C1/C(=C\c2ccccn2)SC(=S)N1c1ccc(S(=O)(=O)Nc2nccs2)cc1	8
70	Cc1ccc(C(=O)NCC(=O)OCC(=O)NC2CCS(=O)(=O)C2)cc1C (centres undefined)	11
71	Cn1cnnc1SCC(=O)Nc1cc(S(=O)(=O)N2CCCCC2)ccc1Cl	15
72	COc1cc(/C(C)=N/NC(=O)CSc2nc3ccccc3[nH]2)ccc1O	21
73	O=C1C/C(=C\c2c(F)cccc2Cl)N2CCC1CC2	10
74	Cc1ccsc1/C=N\NC(=O)c1n[nH]c2c1CCC2	19
75	Fc1ccc(-c2csc3ncnc(Cl)c23)cc1	18
76	CN1CCN(C(=O)NC2CCCCC2)CC1	2
77	COc1cc(NC(=S)NCc2cccnc2)c(OC)cc1Cl	12
78	COCCN(C(=O)Cc1cccs1)C(C(=O)NC1CCCC1)c1cc(OC)c(OC)c(OC)c1 (centres undefined)	15
79	CC(C)C1Oc2ccccc2N(CC(=O)N(Cc2ccccn2)C2CC2)C1=O (centres undefined)	14
80	COC(=O)[C@@]1(Cc2ccc(F)cc2)[C@H]2c3cc(C(=O)N(C)C)n(Cc4ccc(OC(F)(F)F)cc4)c3C[C@H]2CN1C(=O)c1ccccc1	12
81	CCOC(=O)C1CCN(C(=O)c2ccc(N(C)S(=O)(=O)c3ccc(OC)cc3)cc2)CC1	0
82	CN1CCN(C(=O)c2ccccc2N(Cc2ccccc2)S(=O)(=O)c2ccccc2)CC1	9
83	C#CCN(C(=O)CC1C(=O)NCCN1C/C=C/c1ccccc1)C1CCCCC1 (centres undefined)	-1
84	CCOC(=O)C1(Cc2cccc(OC)c2)CCN(Cc2ccccc2OC)CC1	6
85	O=C(C(Sc1ccccc1)c1ccccc1)N1CCN(c2ccccc2)CC1 (centres undefined)	8
86	CCOC(=O)C1=NOC(CNC(=O)c2ccccc2Cl)C1 (centres undefined)	12
87	CCOC(=O)C1(CC2CCCCO2)CCN(Cc2c(C)cc(C)cc2-n2cccn2)CC1 (centres undefined)	17
88	COc1cc(C(=O)NCC(=O)OCC(=O)Nc2ncc(Cl)cc2Cl)cc(OC)c1OC	18
89	Cc1ccc(OCC(=O)O/N=C(\N)c2ccccn2)cc1	-6
90	Cc1nc2ccccc2nc1NS(=O)(=O)c1ccc(N)cc1	2
91	Cc1cc(C)n2c(SCC(=O)NC3CCCC(C)C3C)nnc2n1 (centres undefined)	22
92	CC1=C(C(=O)OCCc2ccccc2)C(c2ccsc2)NC(=O)N1C (centres undefined)	7
93	O=C(CCN1C(=O)/C(=C\c2ccccc2)SC1=S)NNC(=O)c1cccnc1	10
94	CCOC(=O)c1cc(-c2ccc(F)cc2)n(CC(=O)NCc2cccnc2)c1C	6
95	CCCCCCCCCCCNC(=O)c1ccoc1C	12
96	CCOc1ccccc1/C=C/C(=O)c1ccc(Cl)cc1	14
97	COCCCNC(=O)/C(C#N)=C/c1cccc(NC(=O)c2ccccc2Cl)c1	7
98	COc1ccc2ccccc2c1C(=O)/C=C\c1ccoc1	4
99	CCC1C(=O)N=C(SCC(=O)Nc2ccc(S(N)(=O)=O)cc2)NC1=O (centres undefined)	4
100	CCOc1ccc(NC(=S)N(CCOC)C(C)c2cccnc2)cc1 (centres undefined)	1

Following part.
no.	SMILES	Calb biofilm kill
101	CCOC(=O)/C=C1\SCC(=O)N1CC(=O)Nc1cccc(F)c1	0
102	COc1ccc(C(=O)N/C(=C\c2cn(C)c3ccccc23)C(=O)OCCN(C)C)cc1	10
103	COCc1cc(C)nc(SCc2nc3ccccc3c(=O)[nH]2)c1C#N	14
104	Cc1cc(O)c(C(C)C)cc1N=Cc1ccccc1O	12
105	COc1ccc(C(=O)C[n+]2cc(-c3ccc(OC)cc3)n3c2CCCC3)cc1	13&11
106	COc1ccc(Cl)cc1-c1nc(SCC(=O)NC2CC2)n[nH]1	14
107	COc1cccc(N2C(=O)CC(NNC(=O)c3cccs3)C2=O)c1 (centres undefined)	16
108	CCC/C=C(\CCC)C(NC(=O)OCC(C)C)c1ccc(C(=O)OC)cc1 (centres undefined)	17
109	O=C(NCc1ccccc1)c1ccc(C2SCC(=O)N2Cc2ccccc2)cc1 (centres undefined)	18
110	CC(=O)N1N=C(c2ccc(C)cc2)CC1c1ccc2c(c1)OCO2 (centres undefined)	11
111	Clc1nc(NCc2cccnc2)nc(N2CCOCC2)n1	13
112	Cc1cc(C)n(/N=C/c2ccccc2O)c(=O)c1	4
113	CCC1CCCCN1S(=O)(=O)c1ccc(NC(=O)c2cccs2)cc1 (centres undefined)	5
114	O=Cc1ccc(Sc2ncccn2)o1	13
115	CCOc1cc(/C=C2/SC(=S)N(C)C2=O)ccc1Oc1ccc([N+](=O)[O-])cc1[N+](=O)[O-]	13
116	COCC(=O)Nc1cc(C(=O)Nc2ccccc2)ccc1Cl	23
117	CCC(=O)N1CCC(c2ccc(OC)cc2)=N1	7
118	COc1ccccc1OCCn1cc(C(=O)O)c2ccccc21	23
119	CC(=C1C(=O)c2ccccc2C1=O)N1CCN(c2ccc(F)cc2)CC1	18
120	Cc1ccccc1S(=O)(=O)c1cc(C#N)c(=O)[nH]c1N	14
121	Cc1ccc(NC(=O)C/C(N)=N/OC(=O)c2ccccc2)cc1	8
122	COc1ccc(CC2(C)OC(c3ccncc3)=NN2C(C)=O)cc1 (centres undefined)	8
123	O=C(CSc1ncnc2scc(-c3ccccc3)c12)N1CCN(c2ccccc2F)CC1	12
124	CC(OC(=O)CCc1nc2ccccc2[nH]c1=O)c1ccccc1 (centres undefined)	-2
125	CCC(C(=O)Nc1ccccc1)c1ccccc1 (centres undefined)	13
126	CC1(C)C(=O)OC(c2ccccc2)C(C)(C)C1=O (centres undefined)	8
127	CC(C)(C)c1cc(-c2n[nH]c(=S)n2-c2ccc(Cl)cc2)n[nH]1	10
128	CC(=O)c1c(C)[nH]c(C(=O)OCC(=O)Nc2ccccc2Cl)c1C	16

Some of the compounds tested; the hit share may differ from the screen's.
